Screening data (PubChem)
FGF22 binding – binders of recombinant human FGF22 by thermal shift. Q9HCT0. 1.5% of 340,000 active. calls only at 9.99 µM. SYPRO orange fluorescence; percent of sucrose octasulfate shift, DMSO zero;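 active = melting point raised past a set limit in the mean and every replicate; three in four hits are not shown here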
Target sequence (Q9HCT0 whole entry, looked up): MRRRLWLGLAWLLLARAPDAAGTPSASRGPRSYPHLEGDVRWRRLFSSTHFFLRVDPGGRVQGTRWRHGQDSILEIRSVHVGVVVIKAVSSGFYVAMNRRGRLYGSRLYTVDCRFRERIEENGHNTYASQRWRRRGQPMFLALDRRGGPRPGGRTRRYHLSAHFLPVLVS
B2AR ag – activates human beta-2 adrenergic receptor causing internalization. P07550. Am2.2-beta2AR cells, FAP receptor internalization, flow cytometry; reference of the scale not given here. response, % (concentration not given with the values). 0.43% of 340,000 active. AID 504454;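 active = response above a set limit, near 3 SD of response in nonfluorescent compounds, cut at about 42% in these data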;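 also: stock transfer was 100 nL into about 11 µL; a reference agonist was the positive control; negative values mostly stem from fluorescent compounds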
Target sequence (P07550 whole entry, looked up): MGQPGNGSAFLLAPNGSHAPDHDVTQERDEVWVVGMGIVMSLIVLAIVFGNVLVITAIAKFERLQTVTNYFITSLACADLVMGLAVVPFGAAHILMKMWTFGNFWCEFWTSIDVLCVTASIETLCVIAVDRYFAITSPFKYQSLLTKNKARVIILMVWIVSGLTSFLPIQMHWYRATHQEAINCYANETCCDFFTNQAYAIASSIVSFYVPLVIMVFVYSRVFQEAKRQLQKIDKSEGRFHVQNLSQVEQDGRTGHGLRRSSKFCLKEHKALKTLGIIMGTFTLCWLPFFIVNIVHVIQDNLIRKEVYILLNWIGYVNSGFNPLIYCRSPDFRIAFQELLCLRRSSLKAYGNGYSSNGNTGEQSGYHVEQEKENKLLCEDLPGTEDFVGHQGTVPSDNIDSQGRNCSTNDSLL
E coli growth – E. coli growth inhibition. Escherichia coli growth, OD600, 23 h; stronger effect = lower value. OD600 absorbance (no concentration beside the values). 0.21% of 330,000 active. AID 1053175;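 active = OD600 absorbance below the run mean of sample wells minus 3.6 SD, in any replicate, cut at about 0.56 in these data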;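 also: stock transfer was 300 nL into about 60 µL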
ALR inh – blocks human ALR sulfhydryl oxidase activity; P55789; purified ALR, DTT oxidation, H2O2 HRP-luminol luminescence; inhibition, % (test concentration not listed); 3.8% of 290,000 active;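 active = mean and each replicate at 75% or more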;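 also: stock transfer was 7.5 nL into about 7.5 µL; 0% = neutral wells and 100% = wells with inactivated enzyme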
UCH37 inh – blocks the human deubiquitinase UCH37; Q9Y5K5; purified proteasome/UCH37, Ub-AMC cleavage fluorescence; inhibition, % (test concentration not listed); 0.33% of 330,000 active;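 active = mean of two replicates above 20%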;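 also: 0% = compound-free wells with enzyme and 100% = wells lacking proteasome; stock transfer was 100 nL into about 20 µL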
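Material: Human UCH37 enzyme supplied as purified proteasome complex | Schedule: 30 min compound-proteasome preincubation then 25 min substrate reaction, room temperature | Detection: AMC fluorescence from Ub-AMC cleavage, excitation 355 nm, emission 460 nm | Benchmarks: Wells without proteasome as full block, compound-free enzyme plus substrate as uninhibited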
HNF4A DNA FP – change in binding of human HNF4 alpha to DNA | P41235 | HNF4a-FITC DNA binding, fluorescence polarization, 1 h | activity change, % at 10 µM | 0.3% of 360,000 active | AID 1224865; in the data active = activity change above about 30%, passing the limit was not always enough;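 also: controls were the assay level and a saturating level of protein; the project sought stronger binding though the title names inhibitors; some compounds called inactive have numbers as strong as hits; positive values seem to mean higher polarization but the record does not say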
Target sequence (P41235 whole entry, looked up): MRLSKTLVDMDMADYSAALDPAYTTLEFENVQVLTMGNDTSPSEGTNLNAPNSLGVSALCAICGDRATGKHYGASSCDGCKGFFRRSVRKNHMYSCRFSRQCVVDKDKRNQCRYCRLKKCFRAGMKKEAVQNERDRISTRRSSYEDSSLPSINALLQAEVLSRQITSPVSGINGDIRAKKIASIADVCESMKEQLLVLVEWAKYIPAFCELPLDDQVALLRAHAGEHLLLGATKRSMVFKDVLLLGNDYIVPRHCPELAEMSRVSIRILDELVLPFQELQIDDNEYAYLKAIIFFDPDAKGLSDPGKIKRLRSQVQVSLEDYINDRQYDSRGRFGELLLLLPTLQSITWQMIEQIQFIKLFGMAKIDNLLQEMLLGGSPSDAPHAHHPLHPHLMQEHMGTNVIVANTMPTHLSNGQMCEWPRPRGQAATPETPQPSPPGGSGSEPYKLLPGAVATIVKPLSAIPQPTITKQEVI
LANA-H2B inh – blocks KSHV LANA binding to histone H2A/H2B; cell-free LANA-H2A/H2B peptide, fluorescence polarization; inhibition, % (concentration not given with the values); 0.6% of 320,000 active; in the data active = inhibition mostly above about 10%, no sharp cut-off; inactive = mostly below about 6.7%;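 also: stock transfer was 7.5 nL into about 10 µL; 0% = median of vehicle wells and 100% = median of positive control wells; one replicate is shown; the record names a cut of 25% in any replicate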
Active calls of the source: *; i = inactive; / = not tested or not shown. A portion of the library; the hit share may differ from the screen's.

compound	FGF22 binding	B2AR ag	E coli growth	ALR inh	UCH37 inh	HNF4A DNA FP	LANA-H2B inh
O=C(Nc1ccc2c(c1)nc1n2CCSC1)c1ccccc1	/	-19	0.63	99*	-0.5	4.3	3.8
Cc1cc(C)c2sc(N(CCCN(C)C)C(=O)CN3C(=O)c4ccccc4C3=O)nc2c1	i	-3	0.72	-9	3.6	16	1.9
C/C(CC(=O)NC12CC3CC(CC(C3)C1)C2)=N\NC(=O)c1ccc(C)cc1	/	14	/	0	/	-0.7	-8.9
COc1cc(Br)cc2cc(C(=O)N3CCN(C(=O)c4ccco4)CC3)c(=O)oc12	/	-6	0.66	-2	5.5	-12	7.1
COc1ccc(CCNC(=O)c2ccc(Cl)cc2Cl)cc1OC	i	1	0.68	-6	2.2	-1.2	0.3
CCOc1ccc(CC(=O)NNC(=O)NC2CCCCC2)cc1	i	-1	0.67	/	4.3	-0.1	5.8
C/C=C(\C)C(=O)NCCN1C2=NC[C@@H](C)N2C[C@H]1Cc1ccc(O)cc1	i	5	/	-4	1.9	-1.4	-3.8
CCOC(=O)C(CCC#N)(CCC#N)C(=O)OCC	/	0	0.65	0	0.3	3.3	8.7
CCOC(=O)CCNC(=O)N1CCCC(CCC(=O)N(C)CCc2ccccn2)C1 (centres undefined)	/	-3	0.66	/	-0.5	-0.7	5.1
COc1ccc(C(O)P(=O)(OCc2ccccc2)c2ccc(N(C)C)cc2)cc1 (centres undefined)	i	-1	0.62	0	2.0	-0.6	-3.1
O=C(c1ccccc1)N1CCN(CC(O)COC2CCCCC2)CC1 (centres undefined)	/	-2	0.65	-1	2.8	-2.4	0.3
CCSc1nnc(NC(=O)C2CC(=O)N(Cc3ccc(C)cc3)C2)s1 (centres undefined)	i	-2	0.71	-34	4.1	0.8	-0.9
COc1ccc(N2CCN(CC(=O)Nc3ccc(C)cc3Br)CC2)cc1	i	1	0.68	/	3.7	-1.2	/
CC(C)(C)NC(=O)C[C@H]1C[C@H](C(=O)N2CCCCC2)[C@@]2(C)c3[nH]c4cc(-c5ccco5)ccc4c3CCN2C1=O	i	5	0.68	/	-25	4.2	/
O=C(Nc1ccc(F)cc1F)c1c(C(F)(F)F)ccnc1Oc1ccccc1	i	0	0.69	-9	2.3	2.1	-2.9
CCOC(=O)c1sc(NC(=O)CSc2nc3c(cc2C#N)CCCCCC3)c(C#N)c1C	/	-2	0.73	-4	2.9	5.4	1.5
CCC(=O)Nc1c(C(=O)N2CCN(c3ccccn3)CC2)cnn1-c1ccc(C)cc1	i	-3	0.66	1	2.6	-1.5	-1.2
O=C1N=c2ccccc2=C1c1sc(=O)[nH]c1O	i	12	0.61	-6	9.5	0.3	2.2
CC(C)Cc1cc(C(=O)Nc2ccc(Br)cc2)no1	i	-5	0.7	/	-1.5	1.1	-5.4
CCOC(=O)C1CCCN(S(=O)(=O)c2ccc3c4c2CC(=O)N4CC(C)S3)C1 (centres undefined)	i	4	0.73	-9	11	-1.9	3.9
NC(=O)c1ccc(Oc2ccc(C(N)=O)cc2)cc1	i	0	0.73	37	3.9	-2.1	-7.3
CCc1ccc(S(=O)(=O)Nc2ccncc2)cc1	i	-6	/	3	/	-0.8	-3.2
Cc1csc(NC(=O)CCS(=O)(=O)c2ccc(Br)cc2)n1	/	-2	0.68	-8	3.4	2.2	-3.0
CCOC(=O)N1CCC(N2Cc3cccc(C(=O)Nc4ccccc4OC)c3C2=O)CC1	i	-1	0.67	-4	8.8	-2.0	-6.2
O=C(CSCc1cccc(Br)c1)N1CCOCC1	/	2	0.67	52	1.6	-0.7	2.3
COc1ccc(/C=N/NC(=O)c2c(C)nc3ccccn23)cc1[N+](=O)[O-]	i	1	/	-7	/	-1.7	-3.8
c1ccc(Oc2nc(N3CCOCC3)nc(N3CCOCC3)n2)cc1	/	-2	0.72	88*	-0.4	-0.7	0.3
CC[C@H](C)[C@H](NC(=O)c1ccc(Cl)cc1)C(=O)OCC(=O)c1c(N)n(C)c(=O)n(C)c1=O	i	-3	0.7	-3	1.9	-2.5	-1.7
N#CNC1=NCN(Cc2ccccc2)CN1	/	2	0.68	2	1.8	1.7	-6.6
CCCn1c(C(C)NC(C)=O)nc2ccccc21 (centres undefined)	i	14	0.7	-8	3.8	0.5	0.3

Structures from the list above that contain a Cl atom, in the order listed:
compound	FGF22 binding	B2AR ag	E coli growth	ALR inh	UCH37 inh	HNF4A DNA FP	LANA-H2B inh
COc1ccc(CCNC(=O)c2ccc(Cl)cc2Cl)cc1OC	i	1	0.68	-6	2.2	-1.2	0.3
CC[C@H](C)[C@H](NC(=O)c1ccc(Cl)cc1)C(=O)OCC(=O)c1c(N)n(C)c(=O)n(C)c1=O	i	-3	0.7	-3	1.9	-2.5	-1.7

Ordered by value in ALR inh (lowest first): three of the compounds above
| Compound | FGF22 binding | B2AR ag | ALR inh | UCH37 inh | HNF4A DNA FP | LANA-H2B inh |
| --- | --- | --- | --- | --- | --- | --- |
| CCOC(=O)C1CCCN(S(=O)(=O)c2ccc3c4c2CC(=O)N4CC(C)S3)C1 (centres undefined) | i | 4 | -9 | 11 | -1.9 | 3.9 |
| O=C1N=c2ccccc2=C1c1sc(=O)[nH]c1O | i | 12 | -6 | 9.5 | 0.3 | 2.2 |
| CCC(=O)Nc1c(C(=O)N2CCN(c3ccccn3)CC2)cnn1-c1ccc(C)cc1 | i | -3 | 1 | 2.6 | -1.5 | -1.2 |

Continued:
compound	FGF22 binding	B2AR ag	E coli growth	ALR inh	UCH37 inh	HNF4A DNA FP	LANA-H2B inh
COC(=O)[C@@]12CCCN1[C@H](c1ccc(SC3CCCCC3)cc1)[C@H]1C(=O)N(C)C(=O)[C@H]12	i	-14	/	-8	2.1	6.0	-1.7
O=C(NNC(=S)Nc1cccc(C(F)(F)F)c1)c1ccccc1Cl	/	8	0.68	65	7.0	-2.3	-1.0
COc1ccc(NC(=O)CSc2ccc(C)cc2)cc1	/	-1	0.73	-2	-0.7	0.3	-2.5
COc1ccc(-c2ccc(-c3noc(C4CCCCC4)n3)c(OC)n2)cc1	/	19	0.74	-4	-21	3.5	5.9
Cc1noc(C(=O)Nc2sc3c(c2C#N)CCC3)c1Cl	i	2	0.72	8	11	2.0	-0.9
Cc1c(F)cccc1NS(=O)(=O)c1ccc2c(c1)NC(=O)CO2	i	4	0.71	0	6.7	-9.0	-1.7
CC1(C)c2ccccc2-n2c1cc1oc(=O)cc(O)c1c2=O	i	-6	/	-4	/	1.9	-8.1
CCOC(=O)C(NC(=O)Nc1ccc(Cl)cn1)(Oc1ccc(F)cc1)C(F)(F)F (centres undefined)	i	6	0.73	4	3.5	-3.2	0.9
COc1cccc(NC(=O)C2CCN(S(=O)(=O)c3ccc4[nH]c(=O)ccc4c3)CC2)c1	i	-2	0.73	-13	2.5	0.8	-1.5
CCOC(=O)C1=C(C)NC(=O)CC1c1ccccc1 (centres undefined)	/	-3	0.72	-16	5.0	3.0	4.2
c1ccc(Nc2nnc(-c3cccnc3)s2)cc1	i	-3	0.68	/	-5.5	5.0	2.3
COc1ccc(OC)c(/C=N/NC(=O)c2[nH]nc3c2CCc2ccccc2-3)c1	i	12	/	-21	/	3.1	-3.5
COc1ccc(CN2CCN(C(=O)Cn3nc(C)n4cccc4c3=O)CC2)c(OC)c1OC	i	-3	0.7	-4	1.0	-1.2	5.3
N#CCCN1CCN(C(=S)c2ccc(-c3ccc(Cl)c(Cl)c3)o2)CC1	/	2	0.73	2	0.3	1.3	2.9
COc1ccc(CN2CCN(C(=O)C3CCN(C(=O)Nc4ccccc4)CC3)CC2)cc1OC	i	-4	0.69	/	-2.9	-1.7	-1.3
O=C1CCC(C(=O)N2CCOCC2)CN1Cc1ccc(Cl)cc1 (centres undefined)	i	13	0.68	-7	0.5	1.5	-0.1
Cc1cccc(Nc2nnc(SCc3cc(=O)n4cc(C)ccc4n3)s2)c1	i	-2	0.72	-6	3.8	1.7	-2.7
COc1ccc(N(CC(=O)NC2CCCCC2)C(=O)CCCC(=O)Nc2ccccn2)c(OC)c1	/	-4	0.69	-8	-1.3	-2.4	-1.2
COc1ccc(NS(=O)(=O)c2ccc(OC)c(N(C)S(=O)(=O)c3ccc(Cl)cc3)c2)cc1	i	-1	0.7	-9	6.7	-3.0	2.3
C#CCOCCOCCOCCNc1nc(N2CCN(C(=O)[C@H](CCCN=C(N)N)n3cc(C(N)[C@H](C)CC)nn3)CC2)nc(N2CCN(C(=O)[C@H](CCCN=C(N)N)n3cc(C(N)[C@@H](C)CC)nn3)CC2)n1 (some centres undefined)	/	-15	/	0	/	28	1.5
CCOC(=O)CSc1nnc(CSc2nc3sc4c(c3c(=O)[nH]2)CCC4)n1-c1ccccc1	/	2	0.68	6	1.0	0.7	8.3
COC(=O)[C@@]12CCCCN1[C@H](c1ccc(-c3ccc4c(c3)OCO4)c(OC)c1)[C@@H]1C(=O)N(C)C(=O)[C@@H]12	i	0	/	/	1.9	2.0	-1.6
Cc1cc(C)nc(NS(=O)(=O)c2ccc(NC(=O)COc3ccccc3F)cc2)n1	i	10	0.69	52	4.0	-1.9	-0.8
COc1ccc(NS(=O)(=O)c2cccc(C(=O)NN=Cc3ccc(O)c(OC)c3)c2)cc1	i	-1	0.71	36	-44	2.4	-7.9
Cc1[nH]c2ccccc2c1C(=O)COC(=O)C1CC(O)CN1S(=O)(=O)c1ccc(Cl)cc1 (centres undefined)	i	-15	/	/	/	2.6	/
Cc1ccc(C(C)C)c(OCC(O)CN2CCOCC2)c1 (centres undefined)	/	-12	0.72	3	8.0	5.2	-1.0
N=c1n(CCO)c2ccccc2n1Cc1ccccc1Cl	/	15	0.7	-2	1.6	0.1	-2.9
Cc1ccc(C2(CCNC(C)c3cccs3)CCOC(C(C)C)C2)cc1 (centres undefined)	i	10	0.64	/	3.9	-1.6	/
CCOC(=O)CSc1nnc(-c2ccc([N+](=O)[O-])cc2)o1	i	1	0.67	-19	3.0	-0.3	2.6
CC(=O)c1cc2c(cc1NC(=O)CSc1nnc(C)s1)OCO2	/	2	0.73	-4	-5.9	-1.5	2.4
Cc1ccc(C(=O)N2CCCC2)cc1S(=O)(=O)Nc1cccc(C)c1C	i	1	0.71	-4	3.5	4.6	-1.2
COc1c(Cl)cnn(-c2ccc(C)cc2)c1=O	i	9	0.65	6	2.3	2.9	5.8
Cn1c(CCC(=O)O)nc2cc(S(=O)(=O)N3CCCC3)ccc21	i	5	0.65	-4	-0.6	1.6	0.4
CC(C)COc1ccc(S(=O)(=O)NNC(=O)c2cc3ccccc3o2)cc1	/	-19	0.66	35	3.1	-1.5	3.0
CCOC(=O)C1=C(C)NC(=O)NC1c1ccc(N2CCC(c3ccccc3)=N2)cc1 (centres undefined)	/	-2	0.7	-1	-60	55*	-2.3
COc1ccc(NC(=O)Cn2nc3n(c2=S)CCC3)cc1	/	-3	0.69	-11	3.4	1.7	-3.4
CCCNC(=O)COC(=O)c1ccccc1C(=O)c1ccc(Cl)c([N+](=O)[O-])c1	i	35	0.7	5	6.1	-3.3	2.0
CC(C)(C)C(=O)NC1=NCCS1	/	0	0.78	100*	2.6	1.8	-4.3
OC(CON=C1c2ccccc2-c2ccccc21)CN1CCNCC1 (centres undefined)	i	27	0.66	-7	6.3	-2.4	-2.6
Cc1cccc(NC(=S)NC2CC3CCCC(C2)N3Cc2ccco2)c1 (centres undefined)	i	1	0.69	5	-1.8	0.4	2.5
CC(=O)c1ccc(S(=O)(=O)NCCc2cn3ccc(C)cc3n2)cc1	i	-4	0.7	/	-0.2	5.7	-2.2
O=C(OCC(=O)N1CCN(c2ccccc2)CC1)c1ccncc1	i	-3	0.69	38	1.8	1.9	-2.6
O=C(NCc1ccccc1)C1=C[C@@H](c2ccc(Br)cc2)C[C@@H](OCCCCO)O1	i	-6	/	-9	6.1	3.6	0.5
COc1ccc(OC)c2sc(NC(=O)c3cccc(N4C(=O)CCC4=O)c3)nc12	i	7	0.66	0	1.9	3.5	3.4
CC(C)c1ccccc1NC(=O)C1C2C=CC(C2)C1C(=O)O (centres undefined)	i	1	/	0	/	-2.6	-0.5
c1ccc2cc(-c3cc4ccccn4c3)ccc2c1	i	1	0.67	-30	-8.3	7.2	-2.8
